# UUG fidelity = yeast start codon fidelity modulation | S. cerevisiae UUG-firefly luciferase reporter, luminescence/redox ratio | activity score, % at 18.7 µM | 350,000 compounds, 0.13% hits;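 active = replicate mean at a twofold rise or more, about +100% in these data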;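 also: firefly luciferase made from a UUG start codon reports start codon fidelity; reporter light over untreated wells divided by growth signal over untreated wells; some hits fall short of that in this replicate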
# CSC inhib = cancer stem cell inhibition | cancer stem cell-like cells viability, luminescence | inhibition, % at 7.5 µM | 300,000 compounds, 1.1% hits | AID 2717;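 active = mean at 75% or more and at least half the replicates too; inconclusive = mean and replicates disagree; tested in HMLE shEcad cells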;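 also: 0% = median of negative and 100% = median of positive control wells; the first replicate is given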
# Env fusion inh = inhibitors of HIV Env-mediated cell fusion; HeLa-JRFL Env/CEM21 cell fusion, luciferase; inhibition, % at 12.3 µM; 360,000 compounds, 1.1% hits; AID 651610;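 active = mean replicate inhibition score of at least 50 and every replicate individually at or above 50; inconclusive = only one of the two criteria met; inactive = mean below 50 and not all replicates reaching 50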;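 also: 0% = plate neutral controls and 100% = maraviroc near 300 nM; one replicate is shown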
# Rce1 inhib = blocks yeast Ras-converting enzyme. Q03530. yeast membranes, quenched prenylated peptide cleavage fluorescence. calls only. 290,000 compounds, 0.27% hits. AID 2563;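 active = fall in fluorescence gain of 50% or more versus controls, with final raw signal at or below 3038400; inconclusive = same 50% fall but final raw signal above 3038400; inactive = fall in fluorescence gain under 50%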;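 also: plate controls were neutral control wells for no effect and wells lacking membranes for full effect; tested at 10 µM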
# Target sequence (Q03530 whole entry, looked up): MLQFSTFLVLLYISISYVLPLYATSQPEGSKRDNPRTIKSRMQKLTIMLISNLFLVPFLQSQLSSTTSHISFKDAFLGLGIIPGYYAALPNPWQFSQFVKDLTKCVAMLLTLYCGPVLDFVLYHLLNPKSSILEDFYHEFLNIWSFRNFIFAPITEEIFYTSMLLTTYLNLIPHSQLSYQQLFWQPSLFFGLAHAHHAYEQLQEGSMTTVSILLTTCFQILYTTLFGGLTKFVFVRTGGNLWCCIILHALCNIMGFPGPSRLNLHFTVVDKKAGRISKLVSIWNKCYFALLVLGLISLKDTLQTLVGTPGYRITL
# MT1-MMP act inh = inhibitors of human MT1-MMP activation | HT1080 RFP-PRO-GFP cells, GFP/RFP ratio fluorescence, overnight; percent of plate control window, DMSO zero | P50281 | 360,000 compounds, 0.061% hits | GFP/RFP ratio change, % at 20 µM | AID 651647;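 active = GFP/RFP ratio change of at least 30% with cell ATP level not reduced by more than half and red fluorescence within 50% of control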; also: strong numbers were not always called active
#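 Assay system: HT1080 RFP-PRO-GFP cells. Benchmarks: DMSO vehicle wells and RFP-L50D-GFP reporter cell wells. Times: overnight cell settling, then overnight compound exposure, 37 °C, 5% CO2. Compound: 20 µM single dose, 1% DMSO. Read-out basis: GFP/RFP fluorescence ratio.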
# eIF4H FP inh = inhibitors of RNA binding by human eIF4H; 290,000 compounds, 0.94% hits; Q15056; eIF4H fluorescence polarization binding assay; inhibition, % at 35 µM; AID 2012;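 active = 50% or more with normal probe brightness, or confirmed in later tests; inconclusive = above 50% with abnormal brightness, or retests that disagree; inactive = below 50% or failed in later tests; about a fifth of its hits are not listed in these tables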;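 also: calls also rest on retests at 20 µM and on dose response follow-up; 0% = protein and probe with vehicle and 100% = probe without protein; strong numbers were not always called active; many hits fall short of the cut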
# PABP FP inh = blocks human PABP binding to poly(A) RNA; P11940; fluorescence polarization; inhibition, % at 35 µM; 290,000 compounds, 1% hits;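 active = 50% or more with normal probe brightness, or confirmed in later tests; inconclusive = above 50% with abnormal brightness, or retests that disagree; inactive = below 50% or failed in later tests; about a fifth of its hits are not listed in these tables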;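 also: calls also rest on retests at 20 µM and on dose response follow-up; controls were probe without protein and protein plus probe with vehicle; some compounds called inactive have numbers as strong as hits; many hits fall short of the cut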
# eIF4H FP inh retest = second read-out of eIF4H FP inh, no call of its own (marks repeat the call); inhibition, %; compound at 20 µM; confirmation average;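 mean of two retest wells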
# PABP FP inh retest = also measured in PABP FP inh; calls as there; inhibition, %; compound at 20 µM; confirmation repeats;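 mean of two retest wells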
# MT1-MMP act inh RFP = further read-out of MT1-MMP act inh, marked with its call; RFP signal change, %; measured here: RFP expression control read;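 0 = vehicle wells; hits needed this value within 50% of zero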
# Starred values were filed as active, the others as inactive; i = inactive; ? = inconclusive; · = no result given; & = joins results of further samples; [ ] = dose if it differs, or a comment. A portion of the library, so the mix of outcomes need not match the whole.
# The first two records, to show the layout:
SMILES,UUG fidelity,CSC inhib,Env fusion inh,Rce1 inhib,MT1-MMP act inh,MT1-MMP act inh RFP,eIF4H FP inh,PABP FP inh,others
Cc1ccc(SCC(=O)N(C)CC(=O)Nc2cccc(F)c2)c(C)c1,·,7,14,i,6,3,·,·,
CCCCCCc1cc2cc(-c3nnc(-c4ccccc4OC)o3)c(=O)oc2cc1O,-13,?,88*,i,-498,-29,?,?,

# Main list (from the top)
SMILES,UUG fidelity,CSC inhib,Env fusion inh,Rce1 inhib,MT1-MMP act inh,MT1-MMP act inh RFP,eIF4H FP inh,PABP FP inh,others
Cc1ccc(SCC(=O)N(C)CC(=O)Nc2cccc(F)c2)c(C)c1,·,7,14,i,6,3,·,·,
CCCCCCc1cc2cc(-c3nnc(-c4ccccc4OC)o3)c(=O)oc2cc1O,-13,?,88*,i,-498,-29,?,?,
CCn1c(COc2ccc3c(c2)CCCC3)nnc1SCC(=O)Nc1nccs1,·,-8,·,i,8,2,-7,6,
Cc1cc2oc(C(=O)NCc3ccncc3)c(C)c2cc1C,-10,-11,-4,i,-5,-11,-4,2,
CC(=O)c1ccc(C(=O)N2CCCC(Nc3ccccc3)C2)s1 (configuration not stated),-9,-9,·,i,-2,-4,44,-6,
CC(=O)Cc1nsc(NC(=O)c2cccs2)n1,-9,-1,1,i,2,7,-6,-6,
NNS(=O)(=O)c1ccc(Sc2ccccn2)c([N+](=O)[O-])c1,·,-11,9,i,4,0,-1,6,
CN(C)CCCNc1nc2cc(-c3ccc(C(=O)N4CCN(C)CC4)cc3)sc2c(=O)n1C,-16,·,-13,·,5,10,·,·,
CCC(CC)c1nnc(NC(=O)[C@@H](NC(=O)c2cccc(C)c2)C(C)C)s1,·,·,4,i,1,1,4,2,
O=C(OCc1ccccc1F)c1ccc2c(c1)OCCO2,-15,10,-56,i,6,5,-8,12,
Cc1cc(C)c(C(=O)c2ccc(C(=O)N3CCCCC3)cc2)c(C)c1,-1,-14,?,i,0,-9,-7,11,
COc1cccc2cc(-c3cn4ccc(C)cc4n3)c(=O)oc12,-9,-15,-203,i,-1,0,·,·,
O=S(=O)(NCc1ccc(Cl)cc1)NCc1ccc(Cl)cc1,-20,-11,-7,i,-1,-1,-2,-10,
CCN1C[C@@H]2[C@@H]3C(=O)N(C)C(=O)[C@@H]3[C@](CC)(C1=O)N2C(=O)c1ccccc1,-10,·,-2,·,0,0,·,·,
O=C(CCc1ccccc1)NC(NC(=S)Nc1ccc(Cl)cc1)C(Cl)(Cl)Cl (configuration not stated),-22,·,-17,i,-2,-9,-7,14,
C/C(=N\Nc1nc(-c2ccccn2)nc2ccccc12)c1ccc(F)cc1,-28,82*,·,i,-2,3,6,-13,
O=C(Cn1cnc2c(cnn2-c2ccccc2Cl)c1=O)N1CCc2ccccc21,16,·,-1,i,-6,-4,-8,-4,
COc1ccc(NC(=O)NC23CC4(C)CC(C)(CC(C)(C4)C2)C3)cc1,·,10,-177,i,-14,-19,-3,-6,
Clc1ccc(-c2ccc(CN3CCCCC3)o2)cc1,-27,9,6,i,-1,-3,-2,1,
Cc1cc(OC(=O)c2ccco2)c(Sc2ccccc2[N+](=O)[O-])c(=O)o1,·,·,·,·,-3,5,-1,-6,
Cc1cc(OC(=O)c2ccc(C)c(C)c2)c([N+](=O)[O-])c(=O)[nH]1,-16,-8,1,i,1,4,0,4,
O=S(=O)(Nc1cccc(C(F)(F)F)c1)c1cccnc1,-12,-12,·,i,0,1,-5,-1,
Cc1ccc(C(=O)N/C(=C/c2ccco2)C(=O)O)cc1,-19,-5,-10,i,-8,-1,87*,120*,
NS(=O)(=O)c1cccc(NS(=O)(=O)c2ccc(/C=C/C(=O)OCC(=O)c3ccccc3)cc2)c1,-8,35,-24,i,-4,-6,0,2,
COc1ccccc1NC(=O)N1CCN(c2ccc(F)cc2)CC1,-8,-5,-34,i,0,2,4,4,
# Following part
SMILES,UUG fidelity,CSC inhib,Env fusion inh,Rce1 inhib,MT1-MMP act inh,MT1-MMP act inh RFP,eIF4H FP inh,PABP FP inh,others
CN1C(=O)C(C)(C)c2cc(S(=O)(=O)NCc3ccc(Cl)cc3)ccc21,22,·,35,i,2,-1,-5,-1,
CCO[C@@H]1OC(C(=O)NC2CC2)=C[C@H](C)[C@H]1CCCO,-13,-4,-5,i,5,1,-10,-3,
Cc1csc(NC(=O)C2CCCN2C(=O)OCC(C)C)n1 (configuration not stated),-9,-8,·,i,0,4,-1,-1,
Cn1c(Cn2cnc3ccccc32)nnc1SCC(=O)CC(=O)Nc1ccccc1,·,-13,12,·,13,7,-5,-10,
CC(Cc1ccccc1)(NC(=O)CN)c1ccccc1 (configuration not stated),·,0,·,i,·,·,8,6,
Nc1c(C(=O)Nc2ccccc2)sc2nc3c(c(-c4ccco4)c12)CCC3,-9,-3,-45,i,-4,1,84*,62*,eIF4H FP inh retest=105*;PABP FP inh retest=87*
Cc1cccc(N2CCN(C(=O)C3CCN(S(=O)(=O)c4cccnc4)CC3)CC2)c1C,-32,-2,17,i,-1,-6,-14,4,
COc1ccc(NC(C)=O)cc1NC(=O)CSc1nc2ncccc2[nH]1,-25,-14,·,i,5,4,-4,5,
CCOC(=O)C1(CCOC)CCN(C(=O)c2ccccc2-c2cccc(C)c2)CC1,16,-3,-16,i,-2,2,-11,0,
O=C(COc1ccccc1)NCc1ccc(-n2cccc2)cc1,-19,21,-13,i,4,2,2,88,eIF4H FP inh retest=-6;PABP FP inh retest=4
Cc1cc(Br)ccc1NS(=O)(=O)c1c(C)[nH]c(=O)[nH]c1=O,0,11,-13,i,5,0,0,-2,
COc1ccc(-c2ccc(=O)n(CC(=O)Nc3ccc(C(=O)NC4CC4)cc3)n2)cc1OC,-22,-14,·,i,-2,4,-10,-16,
O=C(c1ccccc1)N1CCN(c2ccccc2F)CC1,-13,-13,-30,i,5,6,-8,3,
O=C(CNC(=O)c1cccs1)c1ccc([N+](=O)[O-])cc1,0,-9,-37,i,1,1,-5,?,
C/C(CC(=O)Nc1ccc(N(C)C)cc1)=N\NC(=O)c1ccccc1F,-20,-12,-15,i,-2,4,1,-5,
O=S(=O)(Cc1cc(Cl)nc(-c2ccncc2)n1)c1ccccc1,·,3,2,i,-7,-3,-5,-2,
O=C(Cc1ccc(S(=O)(=O)N2CCOCC2)s1)Nc1ccc(S(=O)(=O)N2CCCCC2)cc1,·,2,·,i,-3,-7,·,·,
C[C@H](CO)N1C[C@H](C)[C@@H](CN(C)S(C)(=O)=O)Oc2ccc(NC(=O)CCN3CCOCC3)cc2C1=O,3&-10,·,-7[16.7 µM],·,5,6,·,·,
CCN1CCN(c2cc(=O)n(C3CCCCC3)c(=O)[nH]2)CC1,-9,-9,22,i,1,7,3,4,
O=C1[C@@H]2Cc3c([nH]c4ccccc34)C(c3ccccc3)N2C(=O)CN1CCO (some centres not stated),10,-16,9,i,-1,0,-1,4,
COc1cccc(NC(=O)CN2C(=O)CSc3ccc(S(=O)(=O)N4CCOCC4)cc32)c1,-6,-4,3,i,3,13,·,·,
CCOCCn1ccc2c(OCC(=O)Nc3ccc(OC)cc3OC)cccc2c1=O,-7,17,3,i,8,1,·,·,
CCc1nnc(NC(=O)CCc2ccc(C)o2)s1,-11,-9,-57,i,1,0,-1,-4,
COC(=O)c1ccccc1S(=O)(=O)N1CCC(C(=O)NCC2CCCO2)CC1 (configuration not stated),-13,-10,14,i,2,3,·,·,
CCOC(=O)c1cc(CC)sc1N1C(=O)CC(Sc2ncccc2C(=O)O)C1=O (configuration not stated),·,-18,20,i,-4,0,0,-3,
# Next section:
SMILES,UUG fidelity,CSC inhib,Env fusion inh,Rce1 inhib,MT1-MMP act inh,MT1-MMP act inh RFP,eIF4H FP inh,PABP FP inh,others
O=C(O)C(Cc1ccccc1)N1C(=O)c2c(Cl)c(Cl)c(Cl)c(Cl)c2C1=O (configuration not stated),·,-5,19,i,0,2,·,·,
COc1ccc(NC(=O)CN2C(=O)NC3(CCCCCCC3)C2=O)cc1,-21,·,-4,·,5,1,·,·,
CN(CC(=O)Nc1c(Cl)cccc1Cl)C(=O)CC1OC(=O)c2ccccc21 (configuration not stated),10,-5,·,·,0,2,·,·,
CCOC(=O)c1cnc2c(Cl)cccc2c1NCCCN1CCOCC1,-11,-13,10,i,-5,-5,1,2,
CSc1cccc(NC(=S)N2CCC(c3ccccc3)C2)c1 (configuration not stated),-14,·,-25,i,1,-3,2,-12,
O=C(c1c[nH]c2ccc(F)cc2c1=O)N1CCCCCC1,-6,-2,·,i,2,3,-3,0,
Cc1ccccc1NC(=O)NNC(=O)c1ccc2ccccc2c1O,-23,4,-10,i,-2,2,-11,1,
c1cncc(CNc2ncnc3ccc(-c4cccnc4)cc23)c1,-18,-23,·,·,-2,-1,·,·,

# 16 compounds out of the list, sorted by molecular weight, rising.
SMILES,UUG fidelity,CSC inhib,Env fusion inh,Rce1 inhib,MT1-MMP act inh,MT1-MMP act inh RFP,eIF4H FP inh,PABP FP inh,others
CCc1nnc(NC(=O)CCc2ccc(C)o2)s1,-11,-9,-57,i,1,0,-1,-4,
O=C(c1c[nH]c2ccc(F)cc2c1=O)N1CCCCCC1,-6,-2,·,i,2,3,-3,0,
CCN1CCN(c2cc(=O)n(C3CCCCC3)c(=O)[nH]2)CC1,-9,-9,22,i,1,7,3,4,
CSc1cccc(NC(=S)N2CCC(c3ccccc3)C2)c1 (configuration not stated),-14,·,-25,i,1,-3,2,-12,
Cc1ccccc1NC(=O)NNC(=O)c1ccc2ccccc2c1O,-23,4,-10,i,-2,2,-11,1,
O=S(=O)(Cc1cc(Cl)nc(-c2ccncc2)n1)c1ccccc1,·,3,2,i,-7,-3,-5,-2,
C/C(CC(=O)Nc1ccc(N(C)C)cc1)=N\NC(=O)c1ccccc1F,-20,-12,-15,i,-2,4,1,-5,
COc1ccc(NC(=O)CN2C(=O)NC3(CCCCCCC3)C2=O)cc1,-21,·,-4,·,5,1,·,·,
O=C1[C@@H]2Cc3c([nH]c4ccccc34)C(c3ccccc3)N2C(=O)CN1CCO (some centres not stated),10,-16,9,i,-1,0,-1,4,
CCOC(=O)c1cnc2c(Cl)cccc2c1NCCCN1CCOCC1,-11,-13,10,i,-5,-5,1,2,
CN(CC(=O)Nc1c(Cl)cccc1Cl)C(=O)CC1OC(=O)c2ccccc21 (configuration not stated),10,-5,·,·,0,2,·,·,
COC(=O)c1ccccc1S(=O)(=O)N1CCC(C(=O)NCC2CCCO2)CC1 (configuration not stated),-13,-10,14,i,2,3,·,·,
O=C(O)C(Cc1ccccc1)N1C(=O)c2c(Cl)c(Cl)c(Cl)c(Cl)c2C1=O (configuration not stated),·,-5,19,i,0,2,·,·,
CCOC(=O)c1cc(CC)sc1N1C(=O)CC(Sc2ncccc2C(=O)O)C1=O (configuration not stated),·,-18,20,i,-4,0,0,-3,
COc1cccc(NC(=O)CN2C(=O)CSc3ccc(S(=O)(=O)N4CCOCC4)cc32)c1,-6,-4,3,i,3,13,·,·,
O=C(Cc1ccc(S(=O)(=O)N2CCOCC2)s1)Nc1ccc(S(=O)(=O)N2CCCCC2)cc1,·,2,·,i,-3,-7,·,·,

# Screening results: PubChem, several laboratories
